Ecoli rRNA inh: reduced GFP signal of wild-type E. coli, primary screen, bacterial rRNA inhibitor project, GFP/RFP fluorescence, OD600, single point. E. coli WT GFP vs humanized-ribosome RFP mutants, 24 h; active compounds read low; DMSO median 0, no signal -100. GFP signal change (wild-type ribosome), % (test concentration not listed). hit rate 1.6% among 350,000. AID 720706, 2013;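 active = significant combined selectivity score with lowered wild-type GFP, culture density cut under 30%, mutant RFP and density less affected; inactive = any of these conditions unmet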; also: one replicate is shown; some compounds called inactive have numbers as strong as hits
AF4-AF9 inh: inhibitors of AF4 peptide binding to AF9, primary screen, biochemical, AlphaScreen, biotin-AF4 peptide, FLAG-AF9, single point. inhibition, % at 10 µM. hit rate 0.47% among 350,000. Protein AF-9 (Homo sapiens), P42568;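 active = every replicate reaching a set inhibition limit, whatever the replicate mean, cut at about 25% in these data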;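 also: 0% = plate neutral control median and 100% = total signal loss; the record names both 10 and 1 µM as test concentration; the first replicate is given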
Target sequence (P42568 whole entry, looked up): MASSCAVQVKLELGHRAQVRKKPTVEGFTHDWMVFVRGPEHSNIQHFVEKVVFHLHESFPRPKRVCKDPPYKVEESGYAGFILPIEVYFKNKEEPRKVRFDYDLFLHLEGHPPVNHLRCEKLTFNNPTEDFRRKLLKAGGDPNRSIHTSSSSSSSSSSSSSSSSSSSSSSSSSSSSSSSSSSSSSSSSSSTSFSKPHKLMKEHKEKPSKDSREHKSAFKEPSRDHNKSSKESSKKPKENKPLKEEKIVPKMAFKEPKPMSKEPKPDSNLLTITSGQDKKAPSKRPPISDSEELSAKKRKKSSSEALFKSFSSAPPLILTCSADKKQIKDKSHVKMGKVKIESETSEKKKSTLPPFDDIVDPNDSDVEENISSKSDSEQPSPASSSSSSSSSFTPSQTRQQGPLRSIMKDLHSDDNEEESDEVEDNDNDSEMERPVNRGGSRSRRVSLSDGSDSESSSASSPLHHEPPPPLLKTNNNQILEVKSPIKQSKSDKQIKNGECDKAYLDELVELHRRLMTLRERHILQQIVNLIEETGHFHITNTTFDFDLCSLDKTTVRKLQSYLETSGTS
Ecoli rRNA inh OD600: further read-out of Ecoli rRNA inh, marked with its call; OD600 change, %; measured here: OD600 growth;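 optical density of the mix in the first replicate; 0 = DMSO median and -100 = no signal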
Ecoli rRNA inh RFP: further read-out of Ecoli rRNA inh, marked with its call; RFP signal change, %; measured here: RFP humanized mutant strains;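 first replicate; 0 = DMSO median and -100 = no signal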
* = called active by the depositor. Only part of the results is shown. The share of hits here may be higher or lower than overall.

Results for COc1ccccc1N1CCN(Cc2cc(=O)oc3ccccc23)CC1 ?
Ecoli rRNA inh: -1.1; AF4-AF9 inh: -1.8; Ecoli rRNA inh OD600: -19.1; Ecoli rRNA inh RFP: -2.8

How did O=C(c1ccccc1)N1CC(=O)N2[C@@H](CO)[C@H](c3ccc(C#Cc4ccccc4)cc3)[C@@H]2C1 do in these assays?
Ecoli rRNA inh: -29.1; AF4-AF9 inh: -0.2; Ecoli rRNA inh OD600: -62.5; Ecoli rRNA inh RFP: 3.4

How did CCCC#Cc1cnc2c(c1)C(=O)N([C@H](C)CO)C[C@@H](C)[C@@H](CN(C)C(=O)Nc1cc(F)ccc1F)O2 do in these assays?
Ecoli rRNA inh: 6.9; AF4-AF9 inh: 0.0; Ecoli rRNA inh OD600: 10.1; Ecoli rRNA inh RFP: 1.9

Results for C[C@H](CO)N1C[C@H](C)[C@@H](CN(C)S(=O)(=O)c2ccc(Cl)cc2)Oc2ccc(NC(=O)NC3CCCCC3)cc2CC1=O ?
Ecoli rRNA inh: -1.3; AF4-AF9 inh: 0.9; Ecoli rRNA inh OD600: -1.9; Ecoli rRNA inh RFP: -1.2

Results for O=C(C[C@@H]1CC[C@H]2[C@@H](COC[C@@H](O)CN2C(=O)Nc2ccc(Cl)cc2)O1)NC1Cc2ccccc2C1 ?
Ecoli rRNA inh: -57.5; AF4-AF9 inh: -3.2; Ecoli rRNA inh OD600: -71.5; Ecoli rRNA inh RFP: -19.9

Results for CO[C@H]1CC[C@H]2CCN(C)C(=O)CCCN(C)C(=O)c3cccc(C#N)c3OC[C@H]1O2 ?
Ecoli rRNA inh: -1.1; AF4-AF9 inh: -1.8; Ecoli rRNA inh OD600: 0.0; Ecoli rRNA inh RFP: -3.1

How did CO[C@H]1CN(C)C(=O)c2cc(NC(=O)Nc3ccccc3)ccc2OC[C@H](C)N(C(=O)Nc2c(C)noc2C)C[C@@H]1C do in these assays?
Ecoli rRNA inh: -0.3; AF4-AF9 inh: -1.1; Ecoli rRNA inh OD600: 5.5; Ecoli rRNA inh RFP: 4.0

Results for N#Cc1ccc(-c2ccc3c(c2)[C@@H]2[C@@H](CCN2S(=O)(=O)c2cccc(F)c2)[C@H](CO)N3)cc1 ?
Ecoli rRNA inh: -8.9; AF4-AF9 inh: -4.5; Ecoli rRNA inh OD600: -25.1; Ecoli rRNA inh RFP: 2.4

How did COCC(=O)Nc1ccc2c(c1)C(=O)N(C)C[C@@H](OC)[C@H](C)CN(C(=O)NC(C)C)[C@@H](C)CO2 do in these assays?
Ecoli rRNA inh: 4.2; AF4-AF9 inh: -1.8; Ecoli rRNA inh OD600: 1.8; Ecoli rRNA inh RFP: -0.5

Results for C[C@@H]1CCCCO[C@@H](CN(C)Cc2ccc(C(=O)O)cc2)[C@H](C)CN([C@H](C)CO)C(=O)c2cc(NC(=O)c3ccncc3)ccc2O1 ?
Ecoli rRNA inh: 4.1; AF4-AF9 inh: -1.4; Ecoli rRNA inh OD600: 11.2; Ecoli rRNA inh RFP: -0.4

What do the screens show for `C[C@@H]1CN([C@H](C)CO)C(=O)c2cc(NC(=O)CCCCCC(=O)Nc3ccccc3N)ccc2O[C@H]1CN(C)C(=O)Nc1ccc2c(c1)OCO2`?
Ecoli rRNA inh: 2.8; AF4-AF9 inh: -0.6; Ecoli rRNA inh OD600: 0.2; Ecoli rRNA inh RFP: 0.3

What do the screens show for `COc1ccc(C#Cc2cccc(-c3nc(C(=O)NCCCN4CCOCC4)cc4c3[C@@H](CCO)N(S(=O)C(C)(C)C)C4)c2)cc1OC` (some centres not stated)?
Ecoli rRNA inh: -0.6; AF4-AF9 inh: -7.9; Ecoli rRNA inh OD600: -6.6; Ecoli rRNA inh RFP: 8.8

Results for COc1ccccc1NC(=O)N(C)C[C@@H]1OCc2ccccc2-c2ccccc2C(=O)N([C@@H](C)CO)C[C@@H]1C ?
Ecoli rRNA inh: -0.1; AF4-AF9 inh: -16.0; Ecoli rRNA inh OD600: 3.9; Ecoli rRNA inh RFP: -0.7

What do the screens show for `C[C@H](CO)N1C[C@H](C)[C@@H](CN(C)C(=O)c2cccc(F)c2)Oc2ncc(-c3cccnc3)cc2C1=O`?
Ecoli rRNA inh: -1.7; AF4-AF9 inh: -2.2; Ecoli rRNA inh OD600: 3.0; Ecoli rRNA inh RFP: -0.1

How did O=C(C[C@H]1CC[C@@H]2[C@H](COC[C@H](O)CN2C(=O)c2ccccc2F)O1)NCc1ccccc1 do in these assays?
Ecoli rRNA inh: 2.6; AF4-AF9 inh: -1.1; Ecoli rRNA inh OD600: 7.4; Ecoli rRNA inh RFP: -2.3

Structures shown so far containing a Cl atom:
Results for C[C@H](CO)N1C[C@H](C)[C@@H](CN(C)S(=O)(=O)c2ccc(Cl)cc2)Oc2ccc(NC(=O)NC3CCCCC3)cc2CC1=O ?
Ecoli rRNA inh: -1.3; AF4-AF9 inh: 0.9; Ecoli rRNA inh OD600: -1.9; Ecoli rRNA inh RFP: -1.2

Results for O=C(C[C@@H]1CC[C@H]2[C@@H](COC[C@@H](O)CN2C(=O)Nc2ccc(Cl)cc2)O1)NC1Cc2ccccc2C1 ?
Ecoli rRNA inh: -57.5; AF4-AF9 inh: -3.2; Ecoli rRNA inh OD600: -71.5; Ecoli rRNA inh RFP: -19.9

Back to the main list; the 2 compounds before the break are reprinted first.
What do the screens show for `C[C@H](CO)N1C[C@H](C)[C@@H](CN(C)C(=O)c2cccc(F)c2)Oc2ncc(-c3cccnc3)cc2C1=O`?
Ecoli rRNA inh: -1.7; AF4-AF9 inh: -2.2; Ecoli rRNA inh OD600: 3.0; Ecoli rRNA inh RFP: -0.1

How did O=C(C[C@H]1CC[C@@H]2[C@H](COC[C@H](O)CN2C(=O)c2ccccc2F)O1)NCc1ccccc1 do in these assays?
Ecoli rRNA inh: 2.6; AF4-AF9 inh: -1.1; Ecoli rRNA inh OD600: 7.4; Ecoli rRNA inh RFP: -2.3

Results for CCCNC(=O)C[C@H]1CC[C@@H]2[C@H](COC[C@H](O)CN2C(=O)c2ccc(F)cc2)O1 ?
Ecoli rRNA inh: -1.7; AF4-AF9 inh: 0.2; Ecoli rRNA inh OD600: -0.2; Ecoli rRNA inh RFP: 0.1

Results for C[C@@H]1CN([C@H](C)CO)C(=O)Cc2cc(NC(=O)CCC(F)(F)F)ccc2O[C@@H]1CN(C)Cc1ccc(Cl)c(Cl)c1 ?
Ecoli rRNA inh: -7.7; AF4-AF9 inh: 1.3; Ecoli rRNA inh OD600: -22.6; Ecoli rRNA inh RFP: 0.6

How did COc1ccc(C#Cc2ccc3c(c2)O[C@H](CN(C)C(=O)CN2CCOCC2)[C@H](C)CN([C@H](C)CO)S3(=O)=O)cc1 do in these assays?
Ecoli rRNA inh: 0.0; AF4-AF9 inh: 7.8; Ecoli rRNA inh OD600: -4.2; Ecoli rRNA inh RFP: 9.1

How did C[C@H]1CN([C@@H](C)CO)C(=O)c2cc(C3=CCCCC3)cnc2O[C@H]1CN(C)Cc1ccccc1C(=O)O do in these assays?
Ecoli rRNA inh: 2.9; AF4-AF9 inh: -2.0; Ecoli rRNA inh OD600: -2.6; Ecoli rRNA inh RFP: 0.1

What do the screens show for `COCc1cn(CC[C@H]2CC[C@@H](NC(=O)Nc3ccc4c(c3)OCO4)[C@H](CO)O2)nn1`?
Ecoli rRNA inh: -0.1; AF4-AF9 inh: -1.5; Ecoli rRNA inh OD600: 9.0; Ecoli rRNA inh RFP: -1.0

How did C[C@H]1CN([C@@H](C)CO)C(=O)Cc2cc(NC(=O)Nc3ccc(F)cc3)ccc2O[C@@H]1CN(C)Cc1ccc(C(=O)O)cc1 do in these assays?
Ecoli rRNA inh: 2.1; AF4-AF9 inh: -0.5; Ecoli rRNA inh OD600: -1.9; Ecoli rRNA inh RFP: -0.6

What do the screens show for `COCC(=O)N(C)C[C@@H]1Oc2cc(C#C[C@@H](C)O)ccc2S(=O)(=O)N([C@H](C)CO)C[C@@H]1C`?
Ecoli rRNA inh: 5.1; AF4-AF9 inh: -2.7; Ecoli rRNA inh OD600: 11.6; Ecoli rRNA inh RFP: -0.1

Results for CCN(C)C1CN(Cc2cn(Cc3ccc(OC)cc3)nn2)S(=O)(=O)C1 (configuration not stated) ?
Ecoli rRNA inh: 19.4; AF4-AF9 inh: -3.5; Ecoli rRNA inh OD600: 23.0; Ecoli rRNA inh RFP: 2.8

Results for C[C@H](CO)N1C[C@H](C)[C@H](CN(C)S(=O)(=O)c2cccs2)Oc2ccc(NC(=O)Nc3ccccc3)cc2C1=O ?
Ecoli rRNA inh: 0.1; AF4-AF9 inh: 1.0; Ecoli rRNA inh OD600: -6.5; Ecoli rRNA inh RFP: -0.2

What do the screens show for `COc1ccc(S(=O)(=O)Nc2ccc3c(c2)C(=O)N([C@H](C)CO)C[C@@H](C)[C@H](CN(C)C(=O)Nc2ccc(F)cc2)OCCCC[C@@H](C)O3)cc1`?
Ecoli rRNA inh: -0.3; AF4-AF9 inh: 1.6; Ecoli rRNA inh OD600: 2.9; Ecoli rRNA inh RFP: 0.9

What do the screens show for `Cc1ccc(S(=O)(=O)N(C)C[C@H]2Oc3ccc(NC(=O)CCCN(C)C)cc3CC(=O)N([C@@H](C)CO)C[C@H]2C)cc1`?
Ecoli rRNA inh: 0.4; AF4-AF9 inh: -1.7; Ecoli rRNA inh OD600: 2.5; Ecoli rRNA inh RFP: -2.6

How did CCCNC(=O)Nc1ccc2c(c1)OC[C@@H](C)N(C)C[C@@H](C)[C@H](OC)CN(C)C2=O do in these assays?
Ecoli rRNA inh: 3.8; AF4-AF9 inh: 0.3; Ecoli rRNA inh OD600: 5.3; Ecoli rRNA inh RFP: 0.3

Results for N#C[C@@H]1[C@@H](c2ccccc2)[C@H](CO)N1S(=O)(=O)c1ccc(F)cc1 ?
Ecoli rRNA inh: 2.5; AF4-AF9 inh: -1.5; Ecoli rRNA inh OD600: 5.1; Ecoli rRNA inh RFP: -0.5

How did C[C@@H]1CN([C@@H](C)CO)C(=O)c2ccccc2-c2ccccc2CO[C@H]1CN(C)C(=O)Oc1ccccc1 do in these assays?
Ecoli rRNA inh: -1.3; AF4-AF9 inh: -0.7; Ecoli rRNA inh OD600: -4.7; Ecoli rRNA inh RFP: -6.4

Results for C[C@@H]1CCCCO[C@@H](CN(C)C(=O)Nc2ccc3c(c2)OCO3)[C@@H](C)CN([C@@H](C)CO)C(=O)c2cc(NC(=O)C3CCCCC3)ccc2O1 ?
Ecoli rRNA inh: 2.0; AF4-AF9 inh: 3.6; Ecoli rRNA inh OD600: 2.4; Ecoli rRNA inh RFP: 0.2

Results for CC(Sc1ccc(S(=O)(=O)N2CCN(C)CC2)cn1)C(=O)Nc1cccc(Cl)c1Cl (configuration not stated) ?
Ecoli rRNA inh: -35.4; AF4-AF9 inh: 9.8; Ecoli rRNA inh OD600: -51.0; Ecoli rRNA inh RFP: -6.8

Results for C[C@@H]1CN([C@@H](C)CO)S(=O)(=O)c2ccc(-c3cccc(C(=O)N(C)C)c3)cc2O[C@@H]1CN(C)C ?
Ecoli rRNA inh: -1.4; AF4-AF9 inh: -2.1; Ecoli rRNA inh OD600: 0.6; Ecoli rRNA inh RFP: -0.9

What do the screens show for `O=C(C[C@@H]1CC[C@H]2[C@@H](COC[C@H](O)CN2CC2CCOCC2)O1)NCC1CC1`?
Ecoli rRNA inh: 2.0; AF4-AF9 inh: 0.6; Ecoli rRNA inh OD600: 6.1; Ecoli rRNA inh RFP: -6.8

Results for C[C@@H]1CN([C@@H](C)CO)C(=O)c2cc(NS(=O)(=O)c3cccs3)ccc2O[C@@H]1CN(C)S(C)(=O)=O ?
Ecoli rRNA inh: 6.8; AF4-AF9 inh: -1.7; Ecoli rRNA inh OD600: 1.5; Ecoli rRNA inh RFP: -2.1

How did C[C@H](CO)N1C[C@H](C)[C@H](CN(C)S(=O)(=O)c2ccccc2)Oc2ccc(NS(=O)(=O)c3ccccc3)cc2CC1=O do in these assays?
Ecoli rRNA inh: 0.6; AF4-AF9 inh: -2.4; Ecoli rRNA inh OD600: -1.0; Ecoli rRNA inh RFP: 0.6

What do the screens show for `C[C@@H]1CN([C@H](C)CO)C(=O)Cc2cc(NC(=O)Cc3cn(C)c4ccccc34)ccc2O[C@H]1CN(C)S(=O)(=O)c1ccc(F)cc1`?
Ecoli rRNA inh: -4.0; AF4-AF9 inh: 0.5; Ecoli rRNA inh OD600: -5.7; Ecoli rRNA inh RFP: -2.2

What do the screens show for `CNC[C@@H]1Oc2cc(-c3ccccc3OC)ccc2S(=O)(=O)N([C@@H](C)CO)C[C@H]1C`?
Ecoli rRNA inh: 0.4; AF4-AF9 inh: -7.1; Ecoli rRNA inh OD600: -9.2; Ecoli rRNA inh RFP: 0.2

Results for CCc1nc2ccc(C(=O)Nc3cccc(NS(C)(=O)=O)c3)cn2c1N(C)C(=O)c1cccc(OC)c1 ?
Ecoli rRNA inh: -3.1; AF4-AF9 inh: 2.9; Ecoli rRNA inh OD600: -12.4; Ecoli rRNA inh RFP: -2.3

What do the screens show for `C[C@@H]1CN([C@H](C)CO)C(=O)c2cc(NS(=O)(=O)c3ccccc3)ccc2O[C@@H](C)CCCCO[C@H]1CN(C)C(=O)C1CCCCC1`?
Ecoli rRNA inh: -2.7; AF4-AF9 inh: -2.1; Ecoli rRNA inh OD600: -10.0; Ecoli rRNA inh RFP: 3.5
